# Ecoli rRNA inh: reduced GFP signal of wild-type E. coli, primary screen, bacterial rRNA inhibitor project, GFP/RFP fluorescence, OD600, single point | GFP signal change (wild-type ribosome), % (concentration not given with the values) | actives 1.6% (n = 350,000) | E. coli WT GFP vs humanized-ribosome RFP mutants, 24 h; active compounds read low; DMSO median 0, no signal -100;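 active = significant combined selectivity score with lowered wild-type GFP, culture density cut under 30%, mutant RFP and density less affected; inactive = any of these conditions unmet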; also: one replicate is shown; some compounds called inactive have numbers as strong as hits
# E coli growth: E. coli growth inhibition, primary screen, OD600; actives 0.21% (n = 330,000); OD600 absorbance (no concentration beside the values); Escherichia coli growth, 23 h; active compounds read low;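 active = OD600 absorbance below the run mean of sample wells minus 3.6 SD, in any replicate, cut at about 0.56 in these data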;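 also: stock transfer was 300 nL into about 60 µL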
# B2AR ag: beta2AR agonists driving receptor internalization, primary screen, cell-based, FAP fluorogen, flow cytometry; actives 0.43% (n = 340,000); Am2.2-beta2AR cells; reference of the scale not given here; response, % (test concentration not listed); Beta-2 adrenergic receptor (Homo sapiens), P07550;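 active = response above a set limit, near 3 SD of response in nonfluorescent compounds, cut at about 42% in these data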;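 also: stock transfer was 100 nL into about 11 µL; a reference agonist was the positive control; negative values mostly stem from fluorescent compounds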
# UCH37 DUB inh: inhibitors of human UCH37 deubiquitinase, primary screen, biochemical, Ub-AMC cleavage, fluorescence; Ubiquitin carboxyl-terminal hydrolase isozyme L5 (Homo sapiens), Q9Y5K5; purified proteasome/UCH37; inhibition, % (test concentration not listed); actives 0.33% (n = 330,000); AID 588478, 2011;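 active = mean of two replicates above 20%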;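 also: 0% = compound-free wells with enzyme and 100% = wells lacking proteasome; stock transfer was 100 nL into about 20 µL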
# Target sequence (Q9Y5K5 whole entry, looked up): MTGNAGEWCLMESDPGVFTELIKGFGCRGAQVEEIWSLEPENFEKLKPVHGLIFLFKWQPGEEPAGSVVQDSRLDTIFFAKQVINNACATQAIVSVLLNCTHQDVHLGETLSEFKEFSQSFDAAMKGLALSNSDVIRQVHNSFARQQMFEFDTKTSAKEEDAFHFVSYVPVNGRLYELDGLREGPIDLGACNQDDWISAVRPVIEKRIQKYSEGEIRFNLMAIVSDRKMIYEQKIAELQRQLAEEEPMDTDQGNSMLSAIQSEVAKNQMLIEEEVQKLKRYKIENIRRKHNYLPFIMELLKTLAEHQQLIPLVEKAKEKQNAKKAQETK
#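 Assay system: Proteasome-bound UCH37. Buffer or medium: pH 7.4 Tris-HCl (50 mM) with ovalbumin, ATP-MgCl2, DTT. Incubation: 30 min preincubation with enzyme, 25 min cleavage at room temperature. Measured by: fluorescence, ex 355 nm, em 460 nm. Read-out basis: percent inhibition. Control set: wells without proteasome as full block, compound-free enzyme plus substrate as uninhibited.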
# ALR H2O2 inh: inhibitors of human ALR sulfhydryl oxidase, primary screen, biochemical, H2O2 detection, HRP-luminol luminescence, single point; purified ALR, DTT oxidation; actives 3.8% (n = 290,000); AID 485317, 2010; inhibition, % (test concentration not listed);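 active = mean and each replicate at 75% or more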;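 also: stock transfer was 7.5 nL into about 7.5 µL; 0% = neutral wells and 100% = wells with inactivated enzyme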
# Target sequence (P55789 whole entry, looked up): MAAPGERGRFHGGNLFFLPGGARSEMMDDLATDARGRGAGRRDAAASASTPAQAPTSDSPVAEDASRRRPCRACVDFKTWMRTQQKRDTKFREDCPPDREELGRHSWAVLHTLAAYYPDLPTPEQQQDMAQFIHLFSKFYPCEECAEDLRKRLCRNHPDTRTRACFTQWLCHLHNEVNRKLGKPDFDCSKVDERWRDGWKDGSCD
# FGF22 binding: binders of human FGF22 protein, primary screen, FGF22 synaptogenesis inhibitor project, biophysical, thermal shift, single point; actives 1.5% (n = 340,000); Fibroblast growth factor 22 (Homo sapiens), Q9HCT0; AID 651658, 2012; recombinant FGF22 thermal shift, SYPRO orange fluorescence; percent of sucrose octasulfate shift, DMSO zero; calls only at 9.99 µM;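 active = melting point raised past a set limit in the mean and every replicate; three in four hits are not shown here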
# HNF4A DNA FP: change in binding of human HNF4A to DNA, primary screen, biochemical, fluorescence polarization, FITC-DNA; Hepatocyte nuclear factor 4-alpha (Homo sapiens), P41235; 1 h; activity change, % at 10 µM; actives 0.3% (n = 360,000); in the data active = activity change above about 30%, passing the limit was not always enough;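 also: controls were the assay level and a saturating level of protein; the project sought stronger binding though the title names inhibitors; some compounds called inactive have numbers as strong as hits; positive values seem to mean higher polarization but the record does not say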
# Target sequence (P41235 whole entry, looked up): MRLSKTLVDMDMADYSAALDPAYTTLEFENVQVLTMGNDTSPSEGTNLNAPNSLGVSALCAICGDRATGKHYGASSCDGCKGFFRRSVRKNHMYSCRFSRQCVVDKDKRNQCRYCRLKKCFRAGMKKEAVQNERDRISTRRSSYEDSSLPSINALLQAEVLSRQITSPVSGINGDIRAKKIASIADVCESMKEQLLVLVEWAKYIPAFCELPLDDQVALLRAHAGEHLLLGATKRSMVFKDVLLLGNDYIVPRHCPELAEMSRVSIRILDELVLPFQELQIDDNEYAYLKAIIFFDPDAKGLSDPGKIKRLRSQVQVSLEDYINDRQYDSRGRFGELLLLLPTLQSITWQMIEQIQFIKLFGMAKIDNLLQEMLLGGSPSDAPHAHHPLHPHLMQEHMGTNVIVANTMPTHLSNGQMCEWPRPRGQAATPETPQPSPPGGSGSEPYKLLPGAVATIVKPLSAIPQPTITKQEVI
# Ecoli rRNA inh OD600: further read-out of Ecoli rRNA inh, marked with its call; OD600 change, %; measured here: OD600 growth;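 optical density of the mix in the first replicate; 0 = DMSO median and -100 = no signal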
# Ecoli rRNA inh RFP: second read-out of Ecoli rRNA inh, no call of its own (marks repeat the call); RFP signal change, %; measured here: RFP humanized mutant strains;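 first replicate; 0 = DMSO median and -100 = no signal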
# Active calls of the source: *; i = inactive; nt = not tested or not shown; & = joins results of further samples. Not all compounds are listed (hit frequency here may not be typical).
SMILES,Ecoli rRNA inh RFP,FGF22 binding,E coli growth,UCH37 DUB inh,Ecoli rRNA inh OD600,Ecoli rRNA inh,B2AR ag,HNF4A DNA FP,ALR H2O2 inh
O=C(COC(=O)/C=C/c1cccc(C(F)(F)F)c1)NC(c1ccccc1)c1ccccc1,nt,nt,nt,4.9,nt,nt,5,-4.0,-1
O=C(O)/C=C/C(=O)NCCCc1ccccc1,-3.5,i,0.69,2.8,-16,-12,1,-4.9,0
COCCNC(=O)c1cc(S(=O)(=O)N2CCCCC2)ccc1N1CCOCC1,0.2,i,0.7,-5.4,12,10,8,6.5,0
Cc1cc(C)c(S(=O)(=O)/N=C2\C=CC(=O)C(Cl)=C2)c(C)c1,nt,nt,nt,nt,nt,nt,-1,-0.8,24
CCOC(=O)C1CCCN(C(=S)Nc2ccc(F)cc2)C1 (stereo unspecified),0.4,i,0.62,-0.4,4,13,8,3.1,5
COC(=O)c1ccc(C)c(NC(=O)CN2C(=O)c3ccccc3S2(=O)=O)c1,nt,nt,0.79,4.7,nt,nt,8,-0.7,nt
O=C(CN1c2ccccc2S(=O)(=O)c2ccccc21)NCc1ccc(F)cc1,1.9*,i,nt,nt,-9.8*,-33*,0,-1.8,-3
Cc1ccc(Cc2cnc(NC(=O)c3ccco3)s2)cc1,nt,nt,0.67,-1.8,nt,nt,-3,0.6,14
CC(C)(C)OC(=O)C[C@@H]1C/C=C\C[C@@H](CC(=O)N[C@@H](CO)Cc2ccccc2)C(=O)NCCOC1=O,11,i,0.67,-1.8,5,2,-1,-2.2,0
O=C1C(=O)N(c2ccccc2)C(c2ccccc2[N+](=O)[O-])/C1=C(\O)c1ccccc1 (stereo unspecified),nt,nt,0.65,7.3,nt,nt,1,-5.3,8
OCCNCCCCCOc1ccc(F)cc1,nt,nt,0.69,1.1,nt,nt,2,-2.7,-4
COc1ccc(C(=O)C2CCCN(S(=O)(=O)c3ccccc3F)C2)c(C)c1 (stereo unspecified),-2.5,i,0.73,6.1,-22,-26,-4,1.9,-2
COc1cc(CN2CCN(CC3CC3)CC2CCO)cc(OC)c1 (stereo unspecified),-1.0,i,0.64,2.2,8,-4,-2,-0.2,-1
COc1cc(NC(=O)N[C@@H](Cc2c[nH]c3ccccc23)C(=O)O)c(C(=O)O)cc1OC,-1.1,i,0.68,-0.8,16,11,-2,0.7,-2
N#Cc1cc([N+](=O)[O-])ccc1NC(=O)COC(=O)C1CCC(=O)N1 (stereo unspecified),0.1,i,0.69,4.7,12,8,-4,-0.1,-8
O=C(N=C1SC2CS(=O)(=O)CC2N1c1ccc(Cl)c(Cl)c1)C1CCCO1 (stereo unspecified),-2.1,i,0.67,5.3,-6,-5,-1,2.3,-1
C/C(=N\NC(=O)c1nnn(-c2nonc2N)c1CSc1ccc(Cl)cc1)c1ccco1,4.0,i,nt,nt,0,-5,0,-1.8,1
O=C(Nc1cccc(-c2cn3cccnc3n2)c1)c1cccs1,nt,nt,0.67,i,nt,nt,-14,-0.6,-10
S=C(NCCc1ccccc1)Nc1cccc2cnccc12,-1.0*,i,0.73,3.2,-8.9*,-27*,10,2.1,-17
Cc1ccc2c(cnn2C(=O)CCC(=O)NCc2cccc(Br)c2)c1,-6.1,i,0.73,2.0,4,-1,7,3.7,-6
Cc1ccccc1NS(=O)(=O)c1cc(C(=O)N2CCCC2)ccc1Cl,-1.9,i,0.65,4.6,-3,6,-1,3.4,-4
OCCC1CN(Cc2cnc(N3CCCC3)s2)CCN1C1CCCC1 (stereo unspecified),1.5,i,0.68,2.1,3,1,-4,-1.2,-9
COc1ccc(CCN2C(=O)CN=C2Nc2ccc(F)cc2)cc1OC,1.2,i,0.67,3.3,4,5,4,-2.1,5
NCC(c1ccccc1)(c1ccccc1)c1ccccc1,-12,i,0.7,1.3,-40,-28,11,-0.7,-34
CCCc1nn2c(=O)cc(CSCC(=O)Nc3ccc(C)cc3)nc2s1,-4.1,i,0.72,2.5,5,4,6,-1.3,7

# A different layout for three compounds above.
# Second line of a record – Ecoli rRNA inh RFP	FGF22 binding	E coli growth	UCH37 DUB inh	Ecoli rRNA inh OD600	Ecoli rRNA inh	B2AR ag	HNF4A DNA FP	ALR H2O2 inh
> O=C1C(=O)N(c2ccccc2)C(c2ccccc2[N+](=O)[O-])/C1=C(\O)c1ccccc1 (stereo unspecified)
    nt	nt	0.65	7.3	nt	nt	1	-5.3	8
> OCCNCCCCCOc1ccc(F)cc1
    nt	nt	0.69	1.1	nt	nt	2	-2.7	-4
> COc1ccc(C(=O)C2CCCN(S(=O)(=O)c3ccccc3F)C2)c(C)c1 (stereo unspecified)
    -2.5	i	0.73	6.1	-22	-26	-4	1.9	-2

# Next section
SMILES,Ecoli rRNA inh RFP,FGF22 binding,E coli growth,UCH37 DUB inh,Ecoli rRNA inh OD600,Ecoli rRNA inh,B2AR ag,HNF4A DNA FP,ALR H2O2 inh
CCc1cc2c(SCc3ccc(C(=O)OC)o3)ncnc2s1,-1.6,i,0.7,2.1,-30,0,9,-21,-3
COc1ccc(N(CC(=O)Nc2cc(OC)ccc2OC)S(=O)(=O)c2c(C)noc2C)cc1,1.5,i,0.72,4.7,-16,-11,5,5.2,-6
O=C(Nc1cccc(F)c1)Nc1ccc2c(c1)C(=O)OC2,-0.6,i,0.68,5.4,7,8,-6,-3.2,-2
CN(C)c1ccc(NC(=O)CN2C3CCCC2CC(NC(=O)c2ccccc2)C3)cc1 (stereo unspecified),2.1,i,0.71,0.4,-5,-1,4,1.9,100*
Cc1cc(C)nc(-n2nc(C)c(C3(O)C(=O)Nc4ccc(F)cc43)c2N)n1 (stereo unspecified),nt,nt,0.71,4.5,nt,nt,-1,3.5,-18
COc1ccc(Br)cc1C1SCCN1S(C)(=O)=O (stereo unspecified),nt,nt,0.76,4.3,nt,nt,-3,2.6,-15
O=C(NNC(=O)c1cc(OCC(F)(F)F)ccc1OCC(F)(F)F)c1cccc(C(F)(F)F)c1,nt,nt,0.73,2.7,nt,nt,2,0.5,-27
Cc1cccc(NCC(=O)N/N=C/c2ccc(Br)cc2)c1,nt,nt,nt,nt,nt,nt,10,-0.8,-6
CCOC(=O)CSCC(=O)Nc1c(C(=O)C2CC2)oc2ccccc12,nt,nt,0.73,0.7,nt,nt,1,-3.8,-10
O=C1C(C2=C(O)c3ccccc3C2=O)=Nc2ccccc21,nt,nt,0.65,85*,nt,nt,nt,-9.2,18
O=C(CSC1=NC(=O)C(c2ccccc2)C(=O)N1)Nc1cccc(Cl)c1 (stereo unspecified),nt,nt,0.73,8.8,nt,nt,-7,3.9,98*
CC(C)(O)CN(CCCNC(=S)Nc1ccccc1)C(=S)Nc1ccccc1,-0.9,i,nt,nt,-1,11,-17,3.9,nt
C[C@H](NC(=O)Cn1cncn1)c1ccccc1,nt,nt,0.63,1.8,nt,nt,1,5.0,-9
CC(=O)Nc1cccc(NC(=O)c2ccc(C)c([N+](=O)[O-])c2)c1,-0.3,i,0.65,2.5,-9,-11,2,-0.6,-5
CC(C)C[C@H]1CNC(=S)N1C[C@H]1CCCN1C[C@H](Cc1ccccc1)N1C[C@H](Cc2ccc(O)cc2)N(CC2CCCCC2)C1=S,11,i,nt,nt,5,14,nt,-1.3,nt
COC(C/C=C/[C@@H](O)[C@H](C)OCc1ccccc1)OC,nt,nt,nt,nt,nt,nt,-6,0.1,-8
Cc1ccc(S(=O)(=O)N2N=C3CCCCC3C2(O)C(F)(F)F)cc1 (stereo unspecified),1.0,i,0.63,6.8,0,-3,-1,0.7,-5
Cc1ccc(C(=O)CN(CCCC(N)=O)S(=O)(=O)c2ccc([N+](=O)[O-])cc2)cc1,-3.9,i,0.71,1.4,18,1,-22,-1.5,-14
CC(O)CNc1ccc([N+](=O)[O-])cc1S(=O)(=O)N1CCOCC1 (stereo unspecified),-0.4,i,0.67,9.8,-1,6,-4,-2.7,-18
CC1(C)C(=O)N(c2ccccc2Cl)C(=O)c2ccccc21,-3.3,i,0.68,2.4,-16,-3,-1,-1.9,-19
O=C1CC(c2ccccc2)c2c(O)cc(O)cc2O1 (stereo unspecified),nt,nt,0.7,4.9,nt,nt,-1,0.1,27
O=S(=O)(NCC1CCCO1)c1cnc(Cl)c(Br)c1 (stereo unspecified),14,i,0.66,4.0,-3,7,10,3.9,3
N/C(Cc1ccc([N+](=O)[O-])cc1)=N\OC(=O)COc1ccccc1Cl,nt,i,nt,nt,nt,nt,-3,7.9,-1
CCCCCCSc1ccc(-c2nc3ccc(Cl)cn3c2NCCCC)cc1OC,0.2&10,i,0.71,-90,-18&4,-3&-4,6,12&1.6,nt
COc1ccc(C(=O)COC(=O)CN2C(=O)NC3(CC(C)CC(C)(C)C3)C2=O)c(OC)c1 (stereo unspecified),5.8,i,0.7,5.1,-38,8,2,1.6,nt
O=C1C[C@@H]2c3c(cccc3CN1Cc1ccccc1Br)C[C@@H](O)[C@H]2O,3.5,i,nt,2.2,-9,-14,-6,0.7,nt
CC(Oc1ccccc1)C(=O)Nc1nnc(C2CCCCC2)s1 (stereo unspecified),-3.4,i,0.68,0.5,-3,-10,6,2.6,-4
COc1cc(C(=O)N2CCN(CCCc3ccccc3)CC2)cc(OC)c1OC,-0.4,i,0.67,2.5,3,0,-3,-2.9,nt
Clc1nc2ccccc2cc1-c1nnn(-c2ccccc2)n1,7.2,i,0.71,1.9,28,11,2,-4.2,-3
CCN(CC)CCCn1c2c(c(SCC(=O)N3CCCc4ccccc43)nc1=O)CCC2,-1.1,i,0.71,2.5,7,4,3,-5.8,-35
COc1ccc(-c2csc(NC(=O)C3CCN(C(=O)c4ccc(F)cc4)CC3)n2)cc1OC,6.4,i,0.71,-2.0,-36,1,16,4.0,-8
O=C(NCc1ccc(F)cc1)c1nc(-c2cccs2)no1,3.5,i,0.71,2.6,-3,-9,-1,-4.0,-6
Cc1nnc(NC(=O)CSc2nc3c(c(=O)n2CCc2ccccc2)SC(C)C3)s1 (stereo unspecified),-0.4,i,0.73,-2.2,12,5,-13,1.2,nt
Fc1ccc(CCn2c(Cn3c(-c4cnccn4)nc4ccccc43)nc3ccccc32)cc1,-5.4,i,nt,nt,-32,-14,nt,-0.6,nt
COc1ccc(CN(C)C(=O)c2ccccc2Sc2ccccc2C#N)cc1OC,4.3,i,0.69,2.2,-12,-13,16,1.1,-8
COCCOC(=O)/C(C#N)=C/c1cn(Cc2ccccc2)nc1-c1cccnc1,-0.4,i,0.72,9.2,-6,-2,32,-1.9,5
COc1ccc(OC)c(C(=O)CN2C(=O)C(=O)N(C3CCCC3)C2=O)c1,0.1,i,0.65,-5.3,18,7,-6,-4.9,-6
Cc1nnc2n1N=C(c1ccccc1)CS2,-2.4,i,0.69,2.5,2,10,-7,4.1,-18
C#CCN1CC(C)/C(=N/O)CC1C (stereo unspecified),nt,nt,nt,nt,nt,nt,-6,-1.0,-5

# From PubChem
